NOMO-1 viab – STK33 inhibitor candidate reducing NOMO-1 cell viability; NOMO-1 AML viability, CellTiter-Glo luminescence, 72 h; inhibition, % (concentration not given with the values); 37,000 tested, 7.5% active;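 active means most replicates above 80%; inconclusive means exactly half above 80%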;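 further: wells of about 30 µL received 25 nL stock; 0% = median of vehicle wells and 100% = reference inhibitor level; the first replicate is given; inactives centre near 10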
Numbers without * were called inactive; ? = inconclusive.

SMILES	NOMO-1 viab
Cc1noc(C)c1S(=O)(=O)Nc1ccc2c(c1)CC(=O)N([C@@H](C)CO)C[C@H](C)[C@H](CN(C)Cc1ccc(C(=O)O)cc1)O2	0
C[C@@H]1CN([C@H](C)CO)C(=O)c2cccc(NC(=O)Nc3cccc4ccccc34)c2O[C@@H]1CN(C)Cc1ccc(C(=O)O)cc1	6
COc1ccc(-c2nnc(SCc3nc4ccccc4c(=O)[nH]3)n2C)cc1	21
C[C@@H]1CCCCO[C@@H](CN(C)Cc2ccccc2)[C@@H](C)CN([C@H](C)CO)C(=O)c2cc(NC(=O)Nc3ccccc3)ccc2O1	42
COC(=O)Cc1c(C)nc2nc(NCc3cccs3)[nH]n2c1=O	21
O=C(CSc1nnc(-c2ccccc2)n1-c1ccccc1)Nc1cccc(F)c1	-3
COc1ccc(NC(=O)c2ccc(CN3CCS(=O)(=O)CC3)cc2)cc1	-16
COc1ccc(CN(C)C[C@@H]2OCCCC[C@@H](C)Oc3ccc(NC(=O)Nc4cccc5ccccc45)cc3C(=O)N([C@H](C)CO)C[C@@H]2C)cc1	4
N#Cc1c(-c2ccccc2)nc(SCC(=O)N(c2ccccc2)c2ccccc2)[nH]c1=O	-6
C[C@H]1CN([C@@H](C)CO)C(=O)c2cccc(NS(=O)(=O)c3cccs3)c2O[C@H]1CN(C)C(=O)Nc1ccc2c(c1)OCO2	13
Cc1ccc(NC(=O)COc2ccc(Br)cc2C)c([N+](=O)[O-])c1	-20
COc1ccc(NC(=O)Nc2ccc3c(c2)C(=O)N([C@@H](C)CO)C[C@@H](C)[C@@H](CN(C)C(=O)Nc2ccc4c(c2)OCO4)O3)cc1	-15
O=C(CCN1C(=O)C2C3C=CC(C4CC34)C2C1=O)Oc1ccccc1 (configuration not stated)	11
C[C@@H]1CN([C@@H](C)CO)C(=O)c2cc(N(C)C)ccc2O[C@H]1CN(C)Cc1ccc(-c2ccccc2)cc1	25
COc1ccccc1C(=O)Nc1c(C)[nH]c(=O)[nH]c1=O	9
O=C1CC(c2ccccc2)N(c2cccc(C(F)(F)F)c2)C(=S)N1 (configuration not stated)	-5
O=C(NCCN1CCOCC1)c1cccc(S(=O)(=O)N2CCCC2)c1	-35
O=c1c(C(F)(F)F)cccn1Cc1ccccc1	5
Cc1ccc(C)c(NC(=O)c2ccc(OCC(=O)Nc3ccccc3C)cc2)c1	8
COc1ccc(S(=O)(=O)N(C)C[C@H]2Oc3c(NC(=O)Nc4c(C)noc4C)cccc3C(=O)N([C@@H](C)CO)C[C@H]2C)cc1	26
COc1ccc(NC(=O)N(C)C[C@H]2Oc3ccc(NC(=O)Nc4ccc5c(c4)OCO5)cc3C(=O)N([C@H](C)CO)C[C@H]2C)cc1	-2
C[C@@H]1CN([C@@H](C)CO)C(=O)c2cccc(NC(=O)C3CCOCC3)c2O[C@H]1CN(C)Cc1ccccc1	-1
C[C@@H]1CN([C@@H](C)CO)C(=O)c2cc(NC(=O)c3ccncc3)ccc2O[C@@H]1CN(C)S(C)(=O)=O	9
COC(=O)c1c(NC(=O)C2CC(=O)NN2Cc2ccccc2)sc2c1CCC(C)C2 (configuration not stated)	109*

Sorted by SMILES length (largest number first): 18 of the compounds above
SMILES	NOMO-1 viab
COc1ccc(CN(C)C[C@@H]2OCCCC[C@@H](C)Oc3ccc(NC(=O)Nc4cccc5ccccc45)cc3C(=O)N([C@H](C)CO)C[C@@H]2C)cc1	4
COc1ccc(NC(=O)Nc2ccc3c(c2)C(=O)N([C@@H](C)CO)C[C@@H](C)[C@@H](CN(C)C(=O)Nc2ccc4c(c2)OCO4)O3)cc1	-15
Cc1noc(C)c1S(=O)(=O)Nc1ccc2c(c1)CC(=O)N([C@@H](C)CO)C[C@H](C)[C@H](CN(C)Cc1ccc(C(=O)O)cc1)O2	0
C[C@@H]1CCCCO[C@@H](CN(C)Cc2ccccc2)[C@@H](C)CN([C@H](C)CO)C(=O)c2cc(NC(=O)Nc3ccccc3)ccc2O1	42
C[C@@H]1CN([C@H](C)CO)C(=O)c2cccc(NC(=O)Nc3cccc4ccccc34)c2O[C@@H]1CN(C)Cc1ccc(C(=O)O)cc1	6
C[C@H]1CN([C@@H](C)CO)C(=O)c2cccc(NS(=O)(=O)c3cccs3)c2O[C@H]1CN(C)C(=O)Nc1ccc2c(c1)OCO2	13
C[C@@H]1CN([C@@H](C)CO)C(=O)c2cc(NC(=O)c3ccncc3)ccc2O[C@@H]1CN(C)S(C)(=O)=O	9
C[C@@H]1CN([C@@H](C)CO)C(=O)c2cccc(NC(=O)C3CCOCC3)c2O[C@H]1CN(C)Cc1ccccc1	-1
N#Cc1c(-c2ccccc2)nc(SCC(=O)N(c2ccccc2)c2ccccc2)[nH]c1=O	-6
COC(=O)c1c(NC(=O)C2CC(=O)NN2Cc2ccccc2)sc2c1CCC(C)C2 (configuration not stated)	109*
Cc1ccc(C)c(NC(=O)c2ccc(OCC(=O)Nc3ccccc3C)cc2)c1	8
Cc1ccc(NC(=O)COc2ccc(Br)cc2C)c([N+](=O)[O-])c1	-20
COc1ccc(NC(=O)c2ccc(CN3CCS(=O)(=O)CC3)cc2)cc1	-16
O=C1CC(c2ccccc2)N(c2cccc(C(F)(F)F)c2)C(=S)N1 (configuration not stated)	-5
O=C(NCCN1CCOCC1)c1cccc(S(=O)(=O)N2CCCC2)c1	-35
COC(=O)Cc1c(C)nc2nc(NCc3cccs3)[nH]n2c1=O	21
COc1ccccc1C(=O)Nc1c(C)[nH]c(=O)[nH]c1=O	9
O=c1c(C(F)(F)F)cccn1Cc1ccccc1	5

The results go on:
SMILES	NOMO-1 viab
Cc1cc2nc(-c3ccc(Cl)c(NC(=O)COc4ccccc4)c3)oc2cc1C	13
C[C@H](CO)N1C[C@H](C)[C@@H](CN(C)C(=O)Nc2ccc(C(F)(F)F)cc2)Oc2ccc(NC(=O)CCC(F)(F)F)cc2C1=O	17
COc1ccc(S(=O)(=O)N(C)C[C@H]2Oc3c(NS(=O)(=O)c4ccc(Cl)cc4)cccc3C(=O)N([C@@H](C)CO)C[C@@H]2C)cc1	4
COc1ccc(NC(=O)N(C)C[C@H]2Oc3ccc(NS(=O)(=O)c4ccc(OC)cc4)cc3C(=O)N([C@H](C)CO)C[C@H]2C)cc1	3
C[C@@H]1CN([C@@H](C)CO)C(=O)c2cc(NC(=O)CCCN(C)C)ccc2O[C@H]1CN(C)Cc1ccc(-c2ccccc2)cc1	12
C[C@@H]1CN([C@H](C)CO)C(=O)c2cc(N(C)C)ccc2O[C@@H]1CN(C)Cc1ccncc1	14
Cc1cc(C(=O)CSc2nnc3ccccn23)c(C)n1Cc1ccccc1	17
COc1cc(SC)ccc1C(=O)NC1CC1	25
C[C@@H]1CN([C@H](C)CO)C(=O)Cc2cc(NC(=O)CCC(F)(F)F)ccc2O[C@@H]1CN(C)Cc1ccc(-c2ccccc2)cc1	34
Cc1cccc(NC(=O)c2cccc(C(=O)Nc3cccc(C)c3)c2)c1	23
C[C@H]1CN([C@@H](C)CO)C(=O)c2cccc(N(C)C)c2O[C@@H]1CN(C)C(=O)Nc1ccccc1	12
C[C@H]1CN([C@@H](C)CO)C(=O)c2cc(NC(=O)NC3CCCCC3)ccc2O[C@H]1CN(C)S(=O)(=O)c1ccccc1	22

Shown with bars between the fields: entries from further up.
molecule | NOMO-1 viab
Cc1cc2nc(-c3ccc(Cl)c(NC(=O)COc4ccccc4)c3)oc2cc1C | 13
C[C@H](CO)N1C[C@H](C)[C@@H](CN(C)C(=O)Nc2ccc(C(F)(F)F)cc2)Oc2ccc(NC(=O)CCC(F)(F)F)cc2C1=O | 17

(continued)
SMILES	NOMO-1 viab
C[C@H]1CN([C@@H](C)CO)C(=O)c2cc(NC(=O)Nc3ccc4c(c3)OCO4)ccc2O[C@H]1CN(C)Cc1ccccc1	9
O=c1[nH]nc(SCc2ccccc2)n1-c1ccc(OCc2ccccc2)cc1	32
C[C@@H]1CN([C@H](C)CO)C(=O)c2cc(NC(=O)Nc3ccc(C(F)(F)F)cc3)ccc2O[C@H]1CN(C)S(=O)(=O)c1ccc(Cl)cc1	54
C[C@H]1CN([C@@H](C)CO)C(=O)c2cccc(NC(=O)Nc3ccccc3)c2O[C@@H]1CN(C)C	-14
C[C@H](CO)N1C[C@H](C)[C@H](CN(C)Cc2ccc3c(c2)OCO3)Oc2ccc(NC(=O)CCC(F)(F)F)cc2C1=O	92*
C[C@@H]1CN([C@@H](C)CO)C(=O)c2cc(NC(=O)Nc3cccc4ccccc34)ccc2O[C@@H]1CN(C)S(=O)(=O)c1ccc(F)cc1	-6
C[C@@H]1CN([C@H](C)CO)C(=O)Cc2cc(NC(=O)CCN3CCOCC3)ccc2O[C@@H]1CN(C)Cc1ccc(C(F)(F)F)cc1	32
C[C@@H]1CN([C@H](C)CO)C(=O)Cc2cc(NS(C)(=O)=O)ccc2O[C@H]1CN(C)Cc1ccc(C(=O)O)cc1	11
C[C@H](CO)N1C[C@H](C)[C@@H](CN(C)CC2CC2)Oc2c(NC(=O)c3nc4ccccc4s3)cccc2C1=O	68
COc1ccccc1NC(=O)COc1ccccc1C(=O)Nc1ccccc1	45
Cc1ccc([N+](=O)[O-])cc1S(=O)(=O)NCCc1c(C)[nH]c2ccccc12	28
O=C1CC(NCc2cccnc2)C(=O)N1c1ccccc1 (configuration not stated)	3
C[C@@H]1CN([C@@H](C)CO)C(=O)c2cc(NS(=O)(=O)c3ccc(Cl)cc3)ccc2O[C@H]1CN(C)Cc1ccc(C(=O)Nc2ccccc2N)cc1	?
COc1ccc(OC)c(CCCCc2cc(OC)ccc2OC)c1	15
OCC1OC(OCC2OC(NCCc3ccc(O)cc3)C(O)C(O)C2O)C(O)C(O)C1O (configuration not stated)	9
COc1ccc(CCNc2ccncn2)cc1OC	25
COc1ccc(NC(=O)N(C)C[C@@H]2Oc3c(NC(=O)c4nc5ccccc5s4)cccc3C(=O)N([C@H](C)CO)C[C@@H]2C)cc1	33
COc1ccc(S(=O)(=O)N(C)C[C@@H]2Oc3ccc(NS(=O)(=O)c4ccc(F)cc4)cc3CC(=O)N([C@@H](C)CO)C[C@@H]2C)cc1	9
CCn1c(SCC(=O)Nc2ccc(F)c(F)c2F)nnc1-c1ccccc1O	1
CN1CCN(S(=O)(=O)c2ccc(NC(=O)C3CC=CCC3C(=O)O)cc2)CC1 (configuration not stated)	-1
Cc1cc(C)c(NC(=O)CSc2nnc(-c3ccc(Br)cc3)o2)c(C)c1	-12
Nc1ccccc1C(=O)NCc1c(F)cccc1Cl	9

High-throughput results as filed in PubChem.

The list is partial, so the mix of outcomes need not match the whole.
